# gsp antagonist: gsp mutant antagonism; gsp-mutant cells, cAMP HTRF, 30 min; control for the full effect not named in the record; Potency, µM (highest dose often 76.9 µM), for inactives: at the top dose activity change, negative = inhibition, actives largely listed as inhibitors; actives 0.4% (n = 340,000); AID 624288; active = falling curve of any shape with a large fitted effect; inconclusive = falling curve, mostly with a smaller effect; inactive = flat or rising curve; cell line not stated here;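 also: intracellular cAMP measured with PDE inhibitor Ro 20-1724 present during compound exposure; potency is read from the fitted curve at half-maximal effect; % is scaled to controls: 0 for no effect and ±100 for the full control effect; nearly all actives have a fitted effect of over 65% in size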
#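 HTRF cAMP read-out (cAMP-d2 plus anti-cAMP antibody-K in lysis buffer, 30 min RT). Before lysis, cells are exposed to compounds with […] for 30 min at 37C in DPBS containing Ca/Mg, BSA and Tween 20.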
# D2 agonist: activates the human D2 dopamine receptor. P14416. activation, % (concentration not given with the values). actives 0.084% (n = 360,000). DiscoveRx PathHunter D2 beta-arrestin, luminescence, 90 min; 100% = 57 uM dopamine signal. AID 624465; in the data active = activation above about 40%; inconclusive = about 15% to 40%; inactive = below about 15%; also: compound concentration not given in the record; the text of the record calls up to 30% inactive
#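 Agonist mode: compounds alone added to overnight-plated D2 PathHunter cells for 90 min at 37 C, with 57 uM final dopamine (EC100) defining full response. Beta-arrestin recruitment detected by chemiluminescent reagent, read after 1 h at ambient temperature.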
# CtBP-E1A inh: inhibitors of CtBP/E1A interaction. activity change, % (no concentration beside the values). AID 651724. AlphaScreen GST-E1A/His-CtBP binding, 1536-well; stronger effect = lower value; control for the full effect not named in the record. actives 0.49% (n = 340,000); in the data active means activity change below about -65%; inconclusive means about -30% to -65%; inactive means above about -30%; also: % is scaled to controls: 0 for no effect and ±100 for the full control effect; compound concentration not given in the record
#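 Protein mix (5X: 125 nM each GST-E1A, His-CtBP) was incubated with pinned compound 2 h at 37 deg C in dark, in 50 mM Tris pH 8.0 buffer with 300 mM NaCl. Glutathione donor and nickel acceptor beads followed; AlphaScreen signal read after 1 h.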
# D2 potentiator: positive allosteric modulators of human D2 dopamine receptor. P14416. DiscoveRx D2 beta-arrestin cells, luminescence, 90 min; 100% = 57 uM dopamine signal. potentiation, % (concentration not given with the values). actives 0.23% (n = 360,000); active = potentiation of 50% or more; inconclusive = 30% to 50%; inactive = 30% or less;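 also: compound concentration not given in the record; tested on top of an EC20 dose of dopamine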
#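 D2 cells co-treated with compound plus 50 nM dopamine (EC20) for 90 min at 37 deg C to detect potentiation. Beta-arrestin recruitment was read as enzyme-fragment luminescence after 1 h at ambient temperature. Full response was set by 57 uM dopamine.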
# Six1-Eya2 blk: Six1/Eya2 interaction inhibition; Q15475+O00167; actives 0.56% (n = 360,000); activity change, % (test concentration not listed); AlphaScreen GST-Six1/His-Eya2 binding, biochemical; stronger effect = lower value; control for the full effect not named in the record; AID 651725; in the data active = activity change below about -65%; inconclusive = about -30% to -65%; inactive = above about -30%; also: % is scaled to controls: 0 for no effect and ±100 for the full control effect; compound concentration not given in the record
# Target sequence (O00167 whole entry, looked up): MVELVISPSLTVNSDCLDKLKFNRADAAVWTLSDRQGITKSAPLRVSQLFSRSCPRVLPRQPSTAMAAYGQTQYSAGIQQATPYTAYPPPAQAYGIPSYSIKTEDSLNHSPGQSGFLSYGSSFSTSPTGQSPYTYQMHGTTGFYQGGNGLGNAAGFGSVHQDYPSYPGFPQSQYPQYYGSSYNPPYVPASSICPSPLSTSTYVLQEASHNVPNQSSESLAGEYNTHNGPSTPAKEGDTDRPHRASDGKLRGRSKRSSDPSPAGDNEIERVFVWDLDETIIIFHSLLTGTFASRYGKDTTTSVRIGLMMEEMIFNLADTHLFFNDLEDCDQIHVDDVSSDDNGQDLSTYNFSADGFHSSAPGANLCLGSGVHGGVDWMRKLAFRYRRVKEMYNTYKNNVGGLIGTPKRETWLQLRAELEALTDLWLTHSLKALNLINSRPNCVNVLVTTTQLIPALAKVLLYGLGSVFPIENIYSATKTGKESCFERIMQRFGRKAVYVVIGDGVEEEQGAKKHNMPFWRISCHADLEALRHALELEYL
# Target sequence (Q15475 whole entry, looked up): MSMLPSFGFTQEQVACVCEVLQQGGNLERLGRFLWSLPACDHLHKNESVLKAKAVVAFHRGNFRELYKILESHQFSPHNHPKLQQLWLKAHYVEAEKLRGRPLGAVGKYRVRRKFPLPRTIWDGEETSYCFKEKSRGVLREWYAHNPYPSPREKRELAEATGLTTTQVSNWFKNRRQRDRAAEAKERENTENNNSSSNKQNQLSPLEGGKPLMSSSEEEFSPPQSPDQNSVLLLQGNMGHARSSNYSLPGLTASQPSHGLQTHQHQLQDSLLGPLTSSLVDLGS
#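 Compounds are tested against tagged Six1 and Eya2 proteins bridged by glutathione donor and nickel acceptor beads; after a one-hour incubation at 37 °C without light, AlphaScreen emission is recorded.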
# gsp ag: agonists of gsp mutant (McCune-Albright syndrome). gsp mutant cells, cAMP HTRF, 30 min; control for the full effect not named in the record. Potency, µM (highest dose often 76.9 µM), for inactives: at the highest dose activation (cAMP increase), usual class: activators. actives 0.13% (n = 340,000). AID 624287; active = well fitted activation curve with a large enough effect; inconclusive = small, poorly fitted or top-dose-only effect, or another doubt; inactive = no such curve, though single readings can be large or run the other way; cell line not stated here;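 also: phosphodiesterase inhibitor Ro 20-1724 added with compounds to block cAMP breakdown; potency is read from the fitted curve at half-maximal effect; nearly all actives have a fitted effect of over 60% in size; about a fifth of the inactives were tested at one dose only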
#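 Cells in DMEM/10% FBS with G418 were pretreated with compounds in DMSO plus […] (300 uM stock) for 30 min at 37C. cAMP was measured by HTRF (cAMP-d2 plus anti-cAMP antibody-K) after 30 min at room temperature.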
# * = called active by the depositor; ? = inconclusive; nt = no result given; [ ] = dose if it differs, or a comment.
SMILES,gsp antagonist,D2 agonist,CtBP-E1A inh,D2 potentiator,Six1-Eya2 blk,gsp ag
CNC(=O)c1c(Cl)cnn1-c1ccccc1,1%,-1.5,4,-2,-9,-27%
CN(C)CCCN(C(=O)c1ccc(Br)s1)c1nc2cc3c(cc2s1)OCO3,7%,-7.3,-15,-35,-1,?
COc1ccc(-c2cnnn2-c2ccc(NC(=O)c3ccc(S(=O)(=O)N4CCCCC4)cc3)cc2)cc1OC,0%,-2.3,0,-3,3,-10%
COc1cccc(-c2cc(CC3(O)CCN(CCCc4ccccc4)CC3)on2)c1,8%,-2.0,-25,-3,-15,24%
COc1cccc(C2/C(=C(/O)c3cnn(-c4ccccc4)c3C)C(=O)C(=O)N2CCN(C)C)c1OC (centres undefined),10%,-2.5,8,-9,4,10%
C=C1CCN(C(CC(C)C)C(=O)OC)S(=O)(=O)c2ccccc21 (centres undefined),-2%,-0.2,8,-2,11,nt
CCn1c(SC)nnc1C1CCN(CC(=O)Nc2ccccc2N2CCOCC2)CC1,-35%,-3.0,-8,-9,1,3%[15.4 µM]
CCC(C)N(C(=O)Cn1c(=O)cnc2ccccc21)C1CCS(=O)(=O)C1 (centres undefined),14%,-0.2,3,12,2,0%[15.4 µM]
CCN(CC(=O)NCc1cccs1)C(=O)Cc1ccc(Cl)c(Cl)c1,-3%,-4.9,-3,-7,6,13%
O=C(CC1Sc2ccccc2NC1=O)OC(C(=O)NCCc1ccccc1)c1cccnc1 (centres undefined),-2%,-0.3,0,11,-2,-8%
COc1ccc(/C=N/NC(=O)c2ccn[nH]2)cc1COc1ccc(F)cc1,?,0.1,-11,19,-8,25%
CCOc1nc(SCCOc2ccccc2)nc(N(C)C)n1,-8%,-4.1,20,-1,36,-34%[inhibitor]
CCCCc1ccc(NC(=O)CN2C(=O)NC(Cc3ccccc3)C2=O)cc1 (centres undefined),4%,2.1,6,-2,-8,-4%[15.4 µM]
CC(C)CC(NC(=O)C(NC(=O)C1CCC(=O)N1C(=O)OCc1ccccc1)C(C)C)C(=O)N1CCCC1C(N)=O (centres undefined),-12%,-1.4,-12,-1,-8,1%[15.4 µM]
CCCN(C(=O)c1cc(S(=O)(=O)N2CCN(CC)CC2)ccc1Cl)C1CCS(=O)(=O)C1 (centres undefined),2%,-4.2,10,-4,0,2%

# Some entries already given with just D2 potentiator and gsp antagonist.
Structure	D2 potentiator	gsp antagonist
CC(C)CC(NC(=O)C(NC(=O)C1CCC(=O)N1C(=O)OCc1ccccc1)C(C)C)C(=O)N1CCCC1C(N)=O (centres undefined)	-1	-12%
CCCN(C(=O)c1cc(S(=O)(=O)N2CCN(CC)CC2)ccc1Cl)C1CCS(=O)(=O)C1 (centres undefined)	-4	2%

# Part of the list above in another layout.
Compound	gsp antagonist	D2 agonist	CtBP-E1A inh	D2 potentiator	Six1-Eya2 blk	gsp ag
CNC(=O)c1c(Cl)cnn1-c1ccccc1	1%	-1.5	4	-2	-9	-27%
CN(C)CCCN(C(=O)c1ccc(Br)s1)c1nc2cc3c(cc2s1)OCO3	7%	-7.3	-15	-35	-1	?
COc1ccc(-c2cnnn2-c2ccc(NC(=O)c3ccc(S(=O)(=O)N4CCCCC4)cc3)cc2)cc1OC	0%	-2.3	0	-3	3	-10%
COc1cccc(-c2cc(CC3(O)CCN(CCCc4ccccc4)CC3)on2)c1	8%	-2.0	-25	-3	-15	24%
COc1cccc(C2/C(=C(/O)c3cnn(-c4ccccc4)c3C)C(=O)C(=O)N2CCN(C)C)c1OC (centres undefined)	10%	-2.5	8	-9	4	10%
C=C1CCN(C(CC(C)C)C(=O)OC)S(=O)(=O)c2ccccc21 (centres undefined)	-2%	-0.2	8	-2	11	nt
CCn1c(SC)nnc1C1CCN(CC(=O)Nc2ccccc2N2CCOCC2)CC1	-35%	-3.0	-8	-9	1	3%[15.4 µM]
CCC(C)N(C(=O)Cn1c(=O)cnc2ccccc21)C1CCS(=O)(=O)C1 (centres undefined)	14%	-0.2	3	12	2	0%[15.4 µM]
CCN(CC(=O)NCc1cccs1)C(=O)Cc1ccc(Cl)c(Cl)c1	-3%	-4.9	-3	-7	6	13%
O=C(CC1Sc2ccccc2NC1=O)OC(C(=O)NCCc1ccccc1)c1cccnc1 (centres undefined)	-2%	-0.3	0	11	-2	-8%
COc1ccc(/C=N/NC(=O)c2ccn[nH]2)cc1COc1ccc(F)cc1	?	0.1	-11	19	-8	25%
CCOc1nc(SCCOc2ccccc2)nc(N(C)C)n1	-8%	-4.1	20	-1	36	-34%[inhibitor]
CCCCc1ccc(NC(=O)CN2C(=O)NC(Cc3ccccc3)C2=O)cc1 (centres undefined)	4%	2.1	6	-2	-8	-4%[15.4 µM]

# Additional entries.
SMILES,gsp antagonist,D2 agonist,CtBP-E1A inh,D2 potentiator,Six1-Eya2 blk,gsp ag
Cc1cccc(NC(=O)C23CCC(C)(C2Br)C3(C)C)c1 (centres undefined),-10%,-3.4,11,20,7,-21%
O=C(O)c1ccc(CS(=O)(=O)c2c(Cl)cccc2Cl)o1,13%,-0.7,8,3,2,-28%
Cc1ccc2nc(-c3ccc(NC(=O)C(C)Sc4nncs4)cc3)sc2c1 (centres undefined),-5%,-3.6,nt,-22,-20,-30%
c1ccc(-c2cc(NCCN3CCCCC3)c3ccccc3n2)cc1,3%,-2.8,-11,-23,-8,3%[15.4 µM]
CCN(CC)CCNC(=O)Cn1nc(-c2ccc(C)cc2)ccc1=O,-2%,-4.2,-22,1,-7,-20%
O=C(CSc1nnc(CNc2ccc(Cl)cc2)o1)Nc1nc2c(s1)CCCC2,?,1.3,12,-12,-1,-30%
Cc1ccccc1Nc1nc(-c2cccnc2)nc2ccccc12,-5%,4.8,4,-2,-3,?
COc1cccc2cc(C(C)N(CCCN3CCOCC3)C(=S)Nc3ccc(C)cc3)oc12 (centres undefined),-20%,-4.8,-17,-23,18,-6%
Clc1ccc(SCCn2ccnc2)cc1,-9%,0.5,-6,-8,2,-1%
O=C(NC(=S)N1CCN(c2ccc(O)cc2)CC1)c1ccco1,-2%,11,-1,6,-8,-5%
Nc1nc(-c2ccccc2)cc(C(F)(F)F)n1,-10%,0.7,2,-12,3,22%
OCCC1CN(Cc2cccn2-c2ncccn2)CCN1CCc1ccccc1 (centres undefined),7%,-1.0,-3,-9,-1,-7%[15.4 µM]
COCCOC(=O)c1c(C)n(C)c2ccc(OC(=O)c3cccs3)cc12,-9%,-4.4,-1,-9,-2,3%
COc1ccccc1CNC(=O)c1ccoc1C,-6%,-0.3,3,-7,-1,-13%
CC(=O)c1ccc(Oc2cc(-c3ccccc3)nc(-c3ccccc3)n2)cc1,6%,-2.9,0,-6,14,-13%
O=C(Nc1ccccc1F)c1cc(Cl)sc1Cl,-17%,-3.5,14,-10,18,8%[15.4 µM]
O=C(CS(=O)(=O)c1ccc(F)cc1)NCCS(=O)(=O)c1ccccc1,6%,-3.8,nt,-5,18,?
COc1ccc2c(=O)c3c(=O)n(-c4ccccc4)c(-c4ccc(C)cc4)nc3oc2c1,10%,-4.3,4,-5,2,-1%[15.4 µM]
Cc1sc2ncnc(N/N=C/c3ccc(O)cc3)c2c1C,?,-0.9,-1,1,?,-21%
C[C@@]12C(=O)N(Cc3ccccc3)CC(=O)N1[C@H]1c3ccccc3OC[C@@H]1[C@@H]2c1ccccc1,?,1.1,-4,-11,-9,-4%
COc1cccc2c(=S)c(CCC(C)=O)c(C)[nH]c12,29%,-6.4,-7,-27,-9,?
Cc1cccc(C)c1OC(=O)CCN1C(=O)C2C3C=CC(C4CC34)C2C1=O (centres undefined),-2%,-0.3,7,-2,0,0%
CC1C(=O)N(Cc2ccc([N+](=O)[O-])cc2)c2ccccc2N1C(=O)c1c(F)cccc1F (centres undefined),-17%,4.4,-14,8,-16,-15%[15.4 µM]
Cc1ccc(O)c(C2=Nc3ccccc3N=C(c3cccs3)C2)c1,-1%,-2.3,36,-31,38,18%
CC1(C(=O)NCc2cccc(Cl)c2)Cc2c(-c3ccc4c(c3)OCO4)ccnc2O1 (centres undefined),nt,-3.5,-4,-11,-3,nt
c1ccc(Cn2nnnc2-c2ccco2)cc1,-3%,0.6,7,-8,1,3%
N#CC1=C(N)N(c2ccccc2)C(c2cccc([N+](=O)[O-])c2)C1(C#N)C#N (centres undefined),8%,-4.0,-6,-5,-26,1%
CC1=NN(c2ccc(S(=O)(=O)O)cc2C)C(=O)C1,17%,-0.2,14,-7,6,9%[15.4 µM]
CN(Cc1ccccc1)c1ccc(C(CC(N)=O)NC(=O)Cc2cccc3ccccc23)cc1[N+](=O)[O-] (centres undefined),-15%,-3.4,-7,-4,-14,25%
O=C1NN(c2cccc(Br)c2)C(=O)/C1=C\c1ccccc1,-2%,0.7,-8,2,-13,1%
CCCCNC(=S)NNC(=O)c1ccco1,7%,-2.4,-13,-13,3,25%
Clc1ccc2nc(COc3ccccc3)[nH]c2c1,-2%,8.6,4,-10,3,-58%
CCCCC1CCC(C(=O)N(CC(C)C)c2c(N)n(Cc3ccccc3)c(=O)[nH]c2=O)CC1 (centres undefined),-4%,-2.2,5,-2,8,28%
Cc1ccc(Nc2nc(-c3ccc(O)c(O)c3)cs2)nc1,-1%,4.0,-28,0,0,0%
Cc1ccc(-c2cc(C(=O)NCc3cnn(C)c3C)c3cc(Br)ccc3n2)cc1,5%,-2.9,1,-6,-2,?
COc1ccc(-c2nc3nc(C)c(Cc4ccccc4)c(=O)n3[nH]2)cc1,4%,-1.5,7,8,1,19%
Clc1ccc(Cn2cc(Br)cn2)cc1Cl,-17%,0.6,4,0,23,-18%
CCN(CC(=O)NC(C)C)Cc1nc2c(Br)cc(Br)cc2c(=O)[nH]1,6%,-3.5,nt,-13,-6,?
COc1cc2[nH]c(=O)n(CCCCCC(=O)N3CCN(c4ccccc4)CC3)c(=O)c2cc1OC,4%,1.3,-23,-2,?,-17%
CC(C)CC(NC(=O)C(NC(=O)OC(C)(C)C)C(C)C)C(N)=O (centres undefined),?,-1.6,4,-9,-1,-8%[15.4 µM]
CC(C)c1ccc(NC(=O)NC(C)c2ccc3c(c2)OCO3)cc1 (centres undefined),-17%,0.4,-1,-1,3,-16%
Cc1ccc(S(C)(=O)=O)cc1S(=O)(=O)Nc1cccc(Cl)c1,-4%,1.3,1,-16,13,0%
COc1cc(NC(=O)C(C)Oc2ccccc2)ccc1NC(=O)COc1ccccc1 (centres undefined),40µM*,-3.7,-1,-23,-7,-24%
Cc1ccc(NC(=O)c2nnn(-c3ccc4c(c3)OCCO4)c2N)cc1,nt,1.3,-13,3,-2,3%[15.4 µM]
CN(CC(=O)Nc1ccc(Cl)cc1)C(=O)COc1ncnc2ccccc12,-3%,-1.1,nt,-4,6,6%
CC(C)(C)c1ccccc1NC(=O)Cn1cnc2cc([N+](=O)[O-])ccc2c1=O,0%,4.8,nt,5,-9,?
O=C1CCC(=O)c2oc3ccccc3c2N1,13%,-5.2,-5,-11,10,1%
CN(Cc1cccs1)C(=O)COc1cccc(-n2cnnn2)c1,-4%,-3.1,0,-3,-1,-28%

# Screening data from PubChem.
